Mtb growth – Confirmatory growth inhibition assay against Mycobacterium tuberculosis H37Rv, potency (AID 1949). 1.6% of 100,000 active. most inactive calls were filed without a number and no value below 0 was filed. inhibition, % at 10 µg/mL; hits with a dose series show IC50 in µg/mL;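 active means confirmed in a dose series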;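 further: bacteria grown 7 days with compound before Alamar blue readout; 0% = untreated bacteria and 100% = reference antibiotic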
* hit, by the source's call; i = inactive. This is a subset. The share of hits here may be higher or lower than overall.

SMILES | Mtb growth
O=C(c1cccnc1)N1CCN(C2CCCCC2)CC1 | i
CS(=O)(=O)N(Cc1ccccc1)c1ccc(C(=O)NC2CCCCCC2)cc1 | i
CC(C(=O)Nc1ccc(S(=O)(=O)N2CCCC2)cc1)N(c1ccccc1)S(C)(=O)=O (stereo not drawn) | i
O=C(NCCNC(=O)c1cn(-c2ccccc2)nc1-c1cccnc1)c1cn(-c2ccccc2)nc1-c1cccnc1 | i
Cc1onc(-c2ccccc2)c1C(=O)Nc1ccc(OC(C)C)cc1 | i
Cc1ccc(N2CCN(C(=O)c3ccccc3)CC2)cc1Cl | i
Cc1ccc(S(=O)(=O)N2CCN(c3ccccc3F)CC2)cc1C | i
O=C(Nc1ccccc1Br)c1ccc(Oc2ccc(C(F)(F)F)cc2[N+](=O)[O-])cc1 | i
Cn1c(SCC(=O)Nc2ccc(OCc3ccccc3)cc2)nnc1-c1cnccn1 | i
COc1ccc(Cl)cc1-c1nc(-c2ccccc2C)no1 | 5%
CCNc1nc(NC(C)CC)nc(SCC(=O)Nc2ccccc2Cl)n1 (stereo not drawn) | 2%
COc1cc(C=O)ccc1OCC(=O)O | i
CC(=O)Nc1ccc(NC(=O)CN(c2c(C)cccc2C)S(C)(=O)=O)cc1 | i
Cc1nnc(NC(=O)c2ccc(-c3ccccc3)cc2)s1 | i
Cc1cc(OCC(=O)N2CCN(c3cccc(Cl)c3)CC2)ccc1Br | 15%
Cc1cc(NC(=O)c2ccco2)ccc1Br | i
Cc1ccc(OCCCCN2CCCC2)c(Br)c1 | i
O=C(Cc1ccc(Cl)cc1)NCc1ccc(CNC(=O)Cc2ccc(Cl)cc2)cc1 | 4%
COC(=O)c1cccc(NC(=S)N2CCN(C)CC2)c1 | i
COC(=O)c1ccccc1NC(=O)NCCCn1nc(C(F)(F)F)c(Cl)c1C | i
CCCN1CCN(C(=O)c2ccc(CC)s2)CC1 | i
COc1ccc(Cl)cc1NC(=O)CSc1nc2ccccc2s1 | i
Cc1ccc(O)c(C2=NNC(c3ccc(Cl)cc3)C2)c1 (stereo not drawn) | 4.8µg/mL*
CC(=O)Nc1ccc(NCc2cc(Cl)ccc2OCc2ccccc2Cl)cc1 | i
Cc1cc(Cl)c(OCCCN2CCCCC2)c(Br)c1 | i

Other compounds follow.
SMILES | Mtb growth
CC(=O)Oc1cc2c(C(C)=O)coc2c2ccccc12 | i
O=C(Nc1ccc(Cl)cc1Cl)C1CC(=O)n2ncnc2N1 (stereo not drawn) | i
CCN(CC)CCN1C(=O)C(O)=C(C(=O)c2sc(C)nc2C)C1c1cccnc1 (stereo not drawn) | i
COC(=O)C1=C(C)NC(=S)NC1c1ccc(F)cc1 (stereo not drawn) | i
CC(C)(C)c1cc(/C=N/NC(=O)C2COc3ccccc3O2)cc(C(C)(C)C)c1O (stereo not drawn) | i
Cc1cc(Br)ccc1OCC(=O)Nc1ccc(Cl)cc1 | i
CCOC(=O)c1cnc2ccc(OC)cc2c1NCCCN1CCOCC1 | i
CC(CCc1ccccc1)NS(=O)(=O)Cc1ccc(Cl)cc1 (stereo not drawn) | i
CCOc1ccccc1OCC(=O)NCc1ccco1 | 5%
Cc1ccc(S(=O)(=O)Nc2ccc(NC(=S)Nc3ccc(Br)cc3Cl)cc2)cc1 | i
CCCCC(=O)NC(=S)Nc1ccc(C(=O)O)cc1 | i
CCOc1ccc(NC(=O)CSc2nnc(-c3ccc([N+](=O)[O-])cc3)n2C)cc1 | i
C=CCOc1cccc(C(=O)Nc2cccc(C)n2)c1 | i
Cc1ccccc1NC(=O)c1ccccc1NC(=O)c1ccccc1 | i
CN(Cc1ccccc1)S(=O)(=O)c1ccc(NC(=O)c2ccco2)cc1 | i
COC(=O)c1c(NC(=O)CCCOc2ccc(Cl)cc2)sc2c1CCC2 | 3%
Cc1cccc(C)c1OCc1nnc(SCC(=O)Nc2ccccc2Cl)o1 | i
Cc1cc(OCCOCCN(C)Cc2ccccc2)ccc1Cl | i
O=C(NC(=S)Nc1ccc(F)cc1F)c1ccccc1Br | 5%
C=CCNC(=O)/C=C/c1cc(OC)ccc1OC | i
CCOc1ccc(N(CC(=O)Nc2c(C)cccc2CC)S(=O)(=O)c2ccc(Cl)cc2)cc1 | 1%
C#CCOc1c(Br)cc(C#N)cc1OC | 5%
COC(=O)CSc1nc(C)c2c(n1)CCCC2 | i
CCCCC(=O)Nc1ccc(C(=O)Nc2cc(C(=O)OC)ccc2C(=O)OC)cc1 | i
CCOc1cc(C(=S)N2CCOCC2)ccc1OCc1ccc(Cl)cc1 | i

Remaining list, next part.
SMILES | Mtb growth
COc1ccc([N+](=O)[O-])cc1NC(=O)C1CC1 | i
CC(C)CC(=O)Nc1cc(C(F)(F)F)ccc1N1CCOCC1 | i
O=C(O)C1CC(=O)N(c2ccc(F)c(F)c2)C1 (stereo not drawn) | i
COc1ccc(-c2csc3nc(C(C)C)oc(=O)c23)cc1OC | i
S=c1[nH]nc(-c2ccncc2)n1-c1ccccc1Cl | i
C=CCn1c(=N)c(C(=O)NCc2ccccc2)cc2c(=O)n3ccccc3nc21 | i
c1coc(-c2nn3c(Cn4cnc5ccccc54)nnc3s2)c1 | i
S=C(Nc1ccc2nsnc2c1)N1CCC(c2ccccc2)C1 (stereo not drawn) | i
CC(=O)c1ccc(Oc2cc(-n3cccn3)nc(-c3ccccc3)n2)cc1 | 5%
Nc1ccc2c(c1)C(=O)N(CC1CCCO1)C2=O (stereo not drawn) | i
CCC1CCCCN1C(=S)Nc1ccc(S(=O)(=O)Nc2ncccn2)cc1 (stereo not drawn) | i
CCOC(=O)c1ccc(NC(=O)C2CCN(S(=O)(=O)c3ccccc3)CC2)cc1 | 5%
NS(=O)(=O)c1ccc(NC(=S)NCCC2=CCCCC2)cc1 | i
Fc1ccc(NC(=S)N2CCN(Cc3ccco3)CC2)cc1Cl | i
COc1ccccc1NC(=O)C(C)Oc1ccc(C(C)(C)C)cc1 (stereo not drawn) | i
CCCC(=O)Nc1scc(-c2ccc(OC)cc2)c1C(=O)O | i
COC(=O)c1ccccc1NC(=O)CSc1nnc(C23CC4CC(CC(C4)C2)C3)n1C | i
CC(=O)c1c(C)nn(C(=O)N(C)c2ccccc2)c1C | i
CSc1ccccc1NC(=O)CSCc1c(Cl)cccc1Cl | i
Cc1c(NC(=O)CSc2nnc3c4ccccc4n(CCc4ccccc4)c3n2)c(=O)n(-c2ccccc2)n1C | i
C=CCOc1ccc(Cl)cc1CNC1CCCC1 | i
O=C(CSC1CCS(=O)(=O)C1)c1ccc(-c2ccccc2)cc1 (stereo not drawn) | i
Cc1cc2c(nn1)CCc1c-2no[n+]1[O-] | 1%
O=C(Nc1ccc(OC(F)F)c(Cl)c1)Nc1ccc2c(c1)OCO2 | i
CS(=O)(=O)N(CC(=O)Nc1ccccc1Sc1ccccc1)c1ccc(F)cc1 | i

Further compounds follow:
SMILES | Mtb growth
C=CCNC(=O)c1cc(Cl)ccc1NC(=O)c1ccco1 | 0%
COc1ccc(S(=O)(=O)n2cnc3cc(C)c(C)cc32)cc1C | i
O=C(CN(c1ccc(F)cc1)S(=O)(=O)c1ccc2c(c1)OCCO2)NC1CC2CCC1C2 (stereo not drawn) | i
C=CCSc1nnc(NC(=O)c2ccc(S(=O)(=O)N3CCCC3)cc2)s1 | i
CCOc1ccc(NS(=O)(=O)c2cccc(OC)c2)cc1 | i
O=C(Nc1ccc(C(F)(F)F)cc1)C1CCN(C(=O)c2ccccc2Cl)CC1 | i
COc1cc(C(=O)NC(=S)Nc2ccc(Cl)c(C(=O)O)c2)cc(OC)c1OC | 1%
CCc1c(C)sc(NC(=O)NC2CCCCC2)c1C(N)=O | 2%
COc1ccc(CNCCc2ccccc2F)cc1Br | i
O=C(O)C1C2C=CC(C2)C1C(=O)N1CC=C(c2ccccc2)CC1 (stereo not drawn) | 0%
N#CCC(=O)Nc1cccc2ccccc12 | i
Cc1ccc(Cc2cnc(NC(=O)CSc3nnc(C)n3N)s2)cc1Cl | i
Cc1ccc(-n2c(SCC(=O)N3CCCC3)nnc2-c2ccncc2)cc1 | i
Cc1cc(C)nc(NS(=O)(=O)c2ccc(NS(=O)(=O)c3ccc(F)cc3)cc2)n1 | 2%
CCOC(=O)N1CCN(C(=O)CCCN2C(=O)c3ccccc3C2=O)CC1 | i
C=CCn1c(-c2cc3cc(Br)ccc3o2)n[nH]c1=S | 2%
CCOc1ccccc1N(CC(=O)NCCC1=CCCCC1)S(=O)(=O)c1ccccc1 | i
c1ccc(Cc2nn3c(Cn4nnc5ccccc54)nnc3s2)cc1 | i
COc1ccc(NC(=O)Nc2ccc(Br)c(Cl)c2)cc1 | i
CC(C)c1cc(C(C)C)c(S(=O)(=O)N2CCN(CCO)CC2)c(C(C)C)c1 | 4%
CC(=O)Nc1ccc(NC(=O)[C@H]2CC=CC[C@H]2C(=O)O)cc1 | i
CCOc1ccc(C(=O)Nc2ccc(I)cc2C)cc1[N+](=O)[O-] | i
CCOc1ccc(-n2c(SCC(=O)Nc3ccc(S(N)(=O)=O)cc3)nnc2-c2cccnc2)cc1 | i
O=C1c2ccccc2C(=O)N1Cc1nc2ccccc2c(=O)n1-c1cccc(C(F)(F)F)c1 | i
CCC(=O)NC(=S)Nc1ccc(N2CCN(C(=O)c3ccccc3C)CC2)cc1 | 42%

(listing goes on)
SMILES | Mtb growth
Cc1oc2ccccc2c1-c1cn2c(n1)SCC2 | 0%
CN1CCN(c2ccc(NC(=O)COc3ccc(Br)cc3)cc2)CC1 | i
O=C(CN1C(=O)C2C3C=CC(C3)C2C1=O)Nc1ccc([N+](=O)[O-])cc1 (stereo not drawn) | i
O=C(c1ccccc1F)N1CCN(Cc2ccncc2)CC1 | i
Cc1ccc(CSc2nnc(NC(=O)c3cccs3)s2)cc1 | i
Cc1cccc(N2C(N)=C(C#N)C(c3cc(C)ccc3C)C3=C2CCCC3=O)c1 (stereo not drawn) | i
O=C(O)c1ccccc1SC1CC(=O)N(c2cccc([N+](=O)[O-])c2)C1=O (stereo not drawn) | i
O=C(NC(=S)Nc1ccc(-c2ccc(CO)o2)cc1)c1ccc(-c2ccc(Cl)cc2Cl)o1 | i
Cn1c(Cc2cccc3ccccc23)nnc1SCC(=O)N1CCCC1 | i
C=CCNC(=O)COc1ccc(Cl)c(C)c1 | i
C=CCOc1cc(Br)c(CO)cc1OCC | i
CC(=O)c1ccc(NC(=O)Nc2ccc(C(N)=O)cc2)cc1 | i
CC(C)CCSc1nc2c(c(=O)[nH]1)C(c1ccccc1Cl)C1=C(CCCC1=O)N2 (stereo not drawn) | i
COc1ccc(Cn2c(=O)n(C)c(=O)n(C)c2=O)cc1[N+](=O)[O-] | 5%
O=C(CCC1CCCCC1)Nc1ncn[nH]1 | i
CCCN1CCN(C(=S)NC2CCCCC2)CC1 | i
CCc1cccc(C)c1NC(=O)C1c2ccccc2Oc2ccccc21 | 4%
Cc1c(C(=O)Nc2nc3ccc(S(C)(=O)=O)cc3s2)oc2ccccc12 | i
O=C(Nc1cccc(NS(=O)(=O)c2ccc(Cl)cc2)c1)c1ccccc1 | i
CCC(C)(C)NC(=O)c1ccccc1Oc1ccccc1 | 6%
Nc1nc2n(n1)C(c1ccc(F)cc1)CC(c1ccccc1)N2 (stereo not drawn) | i
CCOC(=O)c1c(N)c(C#N)c2n1CCCCC2 | 2%
O=C(Nc1ccccc1N1CCCC1)c1ccccc1F | i
O=C(CCN1CCC(c2ccccc2)C1)c1ccccc1 (stereo not drawn) | 12µg/mL*
C=CCn1c(SCc2csc(C)n2)nc2scc(-c3ccc(C)c(C)c3)c2c1=O | 0%

Of the compounds above, these contain an NH in an aromatic ring:
SMILES | Mtb growth
S=c1[nH]nc(-c2ccncc2)n1-c1ccccc1Cl | i
C=CCn1c(-c2cc3cc(Br)ccc3o2)n[nH]c1=S | 2%
CC(C)CCSc1nc2c(c(=O)[nH]1)C(c1ccccc1Cl)C1=C(CCCC1=O)N2 (stereo not drawn) | i
O=C(CCC1CCCCC1)Nc1ncn[nH]1 | i

Part of the list above in order of length of the SMILES, rising:
SMILES | Mtb growth
COC(=O)C1=C(C)NC(=S)NC1c1ccc(F)cc1 (stereo not drawn) | i
CCOc1ccc(NS(=O)(=O)c2cccc(OC)c2)cc1 | i
S=C(Nc1ccc2nsnc2c1)N1CCC(c2ccccc2)C1 (stereo not drawn) | i
CCCC(=O)Nc1scc(-c2ccc(OC)cc2)c1C(=O)O | i
O=C(Nc1ccc(OC(F)F)c(Cl)c1)Nc1ccc2c(c1)OCO2 | i
CCOc1ccc(NC(=O)CSc2nnc(-c3ccc([N+](=O)[O-])cc3)n2C)cc1 | i
O=C(NC(=S)Nc1ccc(-c2ccc(CO)o2)cc1)c1ccc(-c2ccc(Cl)cc2Cl)o1 | i

The list goes on.
SMILES | Mtb growth
COCCN(Cc1cc2cccc(C)c2[nH]c1=O)C(=O)COc1ccccc1 | i
CCCCNC(=O)CSc1ncnc2nc[nH]c12 | i
Cc1ccc(CN(c2ccc(C(=O)Nc3cccc(C)c3)cc2)S(C)(=O)=O)cc1 | i
CC(=O)Nc1ccc(S(=O)(=O)NCC2CC3CCC2C3)cc1 (stereo not drawn) | i
COc1ccc2oc(=O)c(C(=O)NCCO)cc2c1 | i
CC(=O)Nc1ccc(OCC(O)CN2CCOCC2)cc1 (stereo not drawn) | i
O=C1CC(c2ccccc2Cl)Cc2nc(NC3CC3)ncc21 (stereo not drawn) | i
Cc1cc(C)c(S(=O)(=O)NCCSC(C)(C)C)c(C)c1 | i
CS(=O)(=O)N1CCN(c2ccc([N+](=O)[O-])c(NCc3cccnc3)c2)CC1 | 1%
O=C(Nc1ccccc1C(=O)N1CCCCC1CCO)c1ccc(Cl)cc1Cl (stereo not drawn) | i

Exported with tabs: part of the list above
structure	Mtb growth
CS(=O)(=O)N1CCN(c2ccc([N+](=O)[O-])c(NCc3cccnc3)c2)CC1	1%
Cc1ccc(CN(c2ccc(C(=O)Nc3cccc(C)c3)cc2)S(C)(=O)=O)cc1	i
Cc1cc(C)c(S(=O)(=O)NCCSC(C)(C)C)c(C)c1	i
CC(=O)Nc1ccc(OCC(O)CN2CCOCC2)cc1 (stereo not drawn)	i
COc1ccc2oc(=O)c(C(=O)NCCO)cc2c1	i

From PubChem BioAssay
